A1 apoptosis 2 = A1 inhibitors via caspase activation, primary screen, cell-based, luminescence, HTS, two replicates. MEF A1-2A-BIM cells, caspase-Glo luminescence, 3 h; percent of clofoctol response, DMSO zero. caspase activation, % (test concentration not listed). 24,000 tested, under 10 active. AID 2465, 2010; in the data active means caspase activation above about 5.9%;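 further: wells of about 30 µL received 50 nL stock; the first replicate is given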
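Test system – A1-2A-BIM-expressing MEF cells · Input – 2500 cells/well · Medium – RPMI-1640 growth medium with 10% FBS · Compound dosing – 50 nL pinned compound · Timing – 3 h compound exposure at 37 °C · Technique – Caspase-Glo luminescence (DEVD substrate) · Evaluation – Caspase-3/7 activity from luminescence increase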
Active calls of the source: *; & = joins results of further samples. This is a subset; count on the stated rates, not on these rows.

item | SMILES | A1 apoptosis 2
1 | C[C@@H]1CCCCO[C@@H](CN(C)Cc2ccc(C(=O)O)cc2)[C@H](C)CN([C@@H](C)CO)C(=O)c2cc(NC(=O)NC3CCCCC3)ccc2O1 | -0.6
2 | C[C@H]1CN([C@@H](C)CO)C(=O)c2cc(NC(=O)Nc3ccccc3)ccc2O[C@H]1CN(C)S(=O)(=O)c1ccc(F)cc1 | -0.3
3 | COc1ccc(CN(C)C[C@H]2Oc3ccc(NS(=O)(=O)c4cn(C)cn4)cc3C(=O)N([C@H](C)CO)C[C@H]2C)cc1 | -0.4
4 | C[C@@H]1CN([C@H](C)CO)C(=O)c2cccc(NC(=O)Nc3ccccc3)c2O[C@H]1CN(C)Cc1ccc(C(=O)Nc2ccccc2N)cc1 | 1.6
5 | C[C@@H]1CN([C@@H](C)CO)C(=O)c2cc(N(C)C)ccc2O[C@@H]1CN(C)Cc1ccc2c(c1)OCO2 | -0.2
6 | COc1ccc(S(=O)(=O)Nc2cccc3c2O[C@H](CN(C)C(=O)Nc2c(C)noc2C)[C@@H](C)CN([C@H](C)CO)C3=O)cc1 | 0.3
7 | C[C@H]1CN([C@@H](C)CO)C(=O)c2cc(NC(=O)Nc3cccc4ccccc34)ccc2O[C@H]1CN(C)CC1CCCCC1 | -0.5
8 | C[C@H](CO)N1C[C@H](C)[C@H](CN(C)C(=O)NC2CCCCC2)Oc2ncc(-c3cccc(C(F)(F)F)c3)cc2C1=O | 7.1*
9 | C[C@H](CO)N1C[C@H](C)[C@H](CN(C)C(=O)CCC(F)(F)F)OCCCC[C@H](C)Oc2ccc(N(C)C)cc2C1=O | 1.0
10 | C=CCNC(=O)[C@@H]1[C@H]2C(=O)O[C@H](c3ccccc3)[C@H](c3ccccc3)N2[C@H](c2ccccc2OCCO)[C@@]12C(=O)N(C(=O)OCCOC)c1ccccc12 | -0.9
11 | Cc1ccc(S(=O)(=O)N(C)C[C@H]2Oc3ccc(NS(=O)(=O)c4cn(C)cn4)cc3CC(=O)N([C@@H](C)CO)C[C@@H]2C)cc1 | -1.2
12 | C[C@@H]1CCCCO[C@H](CN(C)S(=O)(=O)c2ccccc2)[C@H](C)CN([C@@H](C)CO)C(=O)c2cc(NS(=O)(=O)c3cn(C)cn3)ccc2O1 | 0.4
13 | C[C@@H]1CN([C@@H](C)CO)C(=O)c2cccc(NC(=O)NC3CCCCC3)c2O[C@H]1CN(C)S(=O)(=O)c1cccs1 | -0.6
14 | CNC[C@H]1Oc2ccc(NC(=O)Nc3ccc4c(c3)OCO4)cc2C(=O)N([C@H](C)CO)C[C@H]1C | 0.8
15 | Cc1noc(C)c1NC(=O)N(C)C[C@@H]1Oc2ccc(NC(=O)NC(C)C)cc2CC(=O)N([C@@H](C)CO)C[C@H]1C | -0.1
16 | C[C@@H]1CCCCO[C@H](CN(C)C(=O)Cc2ccccc2)[C@H](C)CN([C@@H](C)CO)C(=O)c2cc(NS(=O)(=O)c3ccc(F)cc3)ccc2O1 | -1.1
17 | C[C@@H]1CN([C@H](C)CO)C(=O)c2cccc(N(C)C)c2O[C@@H]1CN(C)Cc1ccccc1 | 0.3
18 | C=CCN1C(=O)[C@@]2(O[C@@H](CCn3cc(CCO)nn3)[C@H]([Si](C)(C)c3ccc(OC)cc3)[C@H]2C)c2cc(N3CCOC3=O)ccc21 | -0.6
19 | C[C@@H]1CN([C@H](C)CO)C(=O)c2cccc(NS(=O)(=O)c3ccc(F)cc3)c2O[C@@H]1CN(C)S(=O)(=O)c1ccc(F)cc1 | -0.5
20 | C[C@@H]1CN([C@@H](C)CO)C(=O)CCCn2cc(nn2)CO[C@H]1CN(C)Cc1ccccc1 | 0.4
21 | C[C@@H]1CCCCO[C@H](CN(C)CC2CC2)[C@@H](C)CN([C@@H](C)CO)C(=O)c2cc(NS(=O)(=O)c3ccccc3)ccc2O1 | 0.0
22 | COc1ccc(S(=O)(=O)N(C)C[C@H]2OCCCC[C@H](C)Oc3ccc(NC(=O)Cc4ccccc4)cc3C(=O)N([C@H](C)CO)C[C@H]2C)cc1 | 0.1
23 | Cc1ccc(S(=O)(=O)Nc2ccc3c(c2)C(=O)N([C@@H](C)CO)C[C@H](C)[C@H](CN(C)C(=O)Nc2ccc(F)cc2)O3)cc1 | -0.7
24 | C[C@H]1CN([C@@H](C)CO)C(=O)CCCn2cc(nn2)CO[C@@H]1CN(C)S(=O)(=O)c1ccc(C#N)cc1 | 1.1
25 | C[C@H](CO)N1C[C@H](C)[C@H](CN(C)Cc2ccc3c(c2)OCO3)Oc2ccc(N(C)C)cc2C1=O | 0.1
26 | C[C@@H]1CN([C@H](C)CO)C(=O)c2cc(NS(=O)(=O)c3ccccc3)ccc2O[C@H]1CN(C)C(=O)Nc1ccc(C(F)(F)F)cc1 | 1.3
27 | C[C@H](CO)N1C[C@H](C)[C@@H](CN(C)Cc2ccncc2)Oc2ccc(NC(=O)Nc3ccc4c(c3)OCO4)cc2C1=O | 0.6
28 | CC(C)NC(=O)N(C)C[C@H]1Oc2c(NC(=O)Nc3ccccc3)cccc2C(=O)N([C@H](C)CO)C[C@@H]1C | 0.1
29 | CC(C)NC(=O)N(C)C[C@@H]1Oc2ncc(C#Cc3ccc(C(F)(F)F)cc3)cc2C(=O)N([C@H](C)CO)C[C@@H]1C | 1.5
30 | C[C@@H]1CN([C@H](C)CO)C(=O)c2cc(NS(=O)(=O)c3cccs3)ccc2O[C@H]1CN(C)S(C)(=O)=O | -0.1
31 | Cc1cc(C(=O)Nc2cccc3c2O[C@@H](CN(C)Cc2ccccc2)[C@H](C)CN([C@H](C)CO)C3=O)n(C)n1 | -0.1
32 | Cc1noc(C)c1S(=O)(=O)N(C)C[C@H]1OCCCC[C@@H](C)Oc2ccc(N(C)C)cc2C(=O)N([C@H](C)CO)C[C@@H]1C | -0.9
33 | Cc1noc(C)c1S(=O)(=O)Nc1ccc2c(c1)CC(=O)N([C@@H](C)CO)C[C@H](C)[C@@H](CN(C)Cc1ccc3c(c1)OCO3)O2 | -1.2
34 | C[C@H](CO)N1C[C@H](C)[C@@H](CN(C)Cc2ccc(C(=O)O)cc2)Oc2ccc(N(C)C)cc2C1=O | 0.0
35 | CC(C)NC(=O)N(C)C[C@H]1OCCCC[C@@H](C)Oc2ccc(NC(=O)c3ccncc3)cc2C(=O)N([C@@H](C)CO)C[C@H]1C | -0.8
36 | Cc1noc(C)c1NC(=O)Nc1cccc2c1O[C@@H](CN(C)Cc1ccc(C(F)(F)F)cc1)[C@H](C)CN([C@@H](C)CO)C2=O | 0.3
37 | Cc1ccc(S(=O)(=O)Nc2ccc3c(c2)C(=O)N([C@@H](C)CO)C[C@H](C)[C@@H](CN(C)Cc2ccccc2)OCCCC[C@@H](C)O3)cc1 | 0.4
38 | C[C@H](CO)N1C[C@H](C)[C@@H](CN(C)S(=O)(=O)c2ccc(F)cc2)Oc2ccc(NC(=O)Cc3cn(C)c4ccccc34)cc2C1=O | 0.0
39 | CC(C)NC(=O)Nc1ccc2c(c1)C(=O)N([C@@H](C)CO)C[C@@H](C)[C@H](CN(C)C(=O)CCCN(C)C)OCCCC[C@@H](C)O2 | 0.8
40 | Cc1noc(C)c1NC(=O)N(C)C[C@H]1Oc2ccc(NC(=O)Nc3ccc(F)cc3)cc2CC(=O)N([C@H](C)CO)C[C@@H]1C | 0.9
41 | C[C@H](CO)N1C[C@H](C)[C@H](CN(C)Cc2ccc(-c3ccccc3)cc2)Oc2c(NC(=O)NC3CCCCC3)cccc2C1=O | 0.1
42 | COC(=O)c1c2oc(c1C(=O)OC)C(=O)N[C@@H](Cc1ccccc1)Cn1cc(nn1)[C@H](Cc1ccccc1)NC(=O)N[C@@H](CO)CC2 | 0.1
43 | C[C@@H]1CN([C@@H](C)CO)C(=O)c2cc(N(C)C)ccc2O[C@@H]1CN(C)S(C)(=O)=O | -0.8
44 | COc1ccc(COCC23N=C4SCC(=O)N4[C@H](c4ccccc4O2)[C@H]3CO)cc1 | 0.6
45 | Cc1ccc(S(=O)(=O)N(C)C[C@H]2OCCCC[C@H](C)Oc3ccc(NS(=O)(=O)c4cn(C)cn4)cc3C(=O)N([C@@H](C)CO)C[C@@H]2C)cc1 | -1.2
46 | Cc1ccc(S(=O)(=O)N(C)C[C@@H]2Oc3ccc(NC(=O)C4CC4)cc3CC(=O)N([C@H](C)CO)C[C@H]2C)cc1 | -0.9
47 | Cc1noc(C)c1NC(=O)N(C)C[C@H]1Oc2ccc(NC(=O)Nc3ccc4c(c3)OCO4)cc2CC(=O)N([C@H](C)CO)C[C@H]1C | 0.5
48 | C[C@H](CO)N1C[C@H](C)[C@H](CN(C)C)Oc2ccc(NC(=O)CCCN(C)C)cc2C1=O | -0.1
49 | COc1cc2c(cc1OC)CN(C(=O)[C@@H]1[C@H]3C(=O)O[C@H](c4ccccc4)[C@H](c4ccccc4)N3[C@H](c3ccccc3OCCO)[C@@]13C(=O)Nc1ccc(C#CCNC(N)=O)cc13)CC2 | -0.5
50 | CC(C)NC(=O)N(C)C[C@@H]1Oc2ccc(NC(=O)Nc3ccc(F)cc3)cc2CC(=O)N([C@H](C)CO)C[C@@H]1C | 0.2
51 | COc1ccc(CN(C)C[C@H]2Oc3c(NC(=O)c4cnccn4)cccc3C(=O)N([C@@H](C)CO)C[C@@H]2C)cc1 | 0.2
52 | COc1ccc(S(=O)(=O)Nc2ccc3c(c2)C(=O)N([C@H](C)CO)C[C@@H](C)[C@@H](CN(C)Cc2ccc(C(F)(F)F)cc2)OCCCC[C@@H](C)O3)cc1 | -0.7
53 | CC(C)NC(=O)Nc1ccc2c(c1)C(=O)N([C@@H](C)CO)C[C@@H](C)[C@@H](CN(C)C(=O)Nc1ccccc1)OCCCC[C@H](C)O2 | -0.9
54 | Cc1noc(C)c1NC(=O)Nc1cccc2c1O[C@@H](CN(C)Cc1ccc(C(F)(F)F)cc1)[C@H](C)CN([C@H](C)CO)C2=O | -0.2
55 | O=C(NCc1ccccc1)C1=C[C@H](c2ccc3c(c2)OCO3)C[C@H](OCCCCO)O1 | -0.2&0.1
56 | COc1ccc(CN(C)C[C@@H]2Oc3ccc(NC(=O)Nc4ccc5c(c4)OCO5)cc3CC(=O)N([C@H](C)CO)C[C@@H]2C)cc1 | 0.1
57 | C=CCNc1ncnc2ccc(Br)cc12 | -0.5&-0.4
58 | C[C@@H]1CN([C@@H](C)CO)C(=O)Cc2cc(NC(=O)C3CCCCC3)ccc2O[C@@H]1CN(C)S(=O)(=O)c1ccccc1 | -0.3
59 | COc1ccc(S(=O)(=O)N(C)C[C@H]2Oc3ccc(NC(=O)C4CC4)cc3C(=O)N([C@H](C)CO)C[C@H]2C)cc1 | 0.3
60 | COc1ccc(NC(=O)Nc2ccc3c(c2)C(=O)N([C@H](C)CO)C[C@@H](C)[C@@H](CN(C)S(=O)(=O)c2cn(C)cn2)O3)cc1 | 0.1

Grouped by structure, those above with a thiophene ring, fused or not.
item | SMILES | A1 apoptosis 2
13 | C[C@@H]1CN([C@@H](C)CO)C(=O)c2cccc(NC(=O)NC3CCCCC3)c2O[C@H]1CN(C)S(=O)(=O)c1cccs1 | -0.6
30 | C[C@@H]1CN([C@H](C)CO)C(=O)c2cc(NS(=O)(=O)c3cccs3)ccc2O[C@H]1CN(C)S(C)(=O)=O | -0.1

Exported as labelled records: part of the list above.
32: Cc1noc(C)c1S(=O)(=O)N(C)C[C@H]1OCCCC[C@@H](C)Oc2ccc(N(C)C)cc2C(=O)N([C@H](C)CO)C[C@@H]1C
  A1 apoptosis 2: -0.9
33: Cc1noc(C)c1S(=O)(=O)Nc1ccc2c(c1)CC(=O)N([C@@H](C)CO)C[C@H](C)[C@@H](CN(C)Cc1ccc3c(c1)OCO3)O2
  A1 apoptosis 2: -1.2

Other structures follow:
item | SMILES | A1 apoptosis 2
61 | C[C@@H]1CN([C@H](C)CO)C(=O)c2cc(NC(=O)c3ccncc3)ccc2O[C@@H]1CN(C)Cc1ccc(C(=O)O)cc1 | -0.4
62 | Cc1ccc(S(=O)(=O)N(C)C[C@H]2OCCCC[C@@H](C)Oc3ccc(NC(=O)NC4CCCCC4)cc3C(=O)N([C@H](C)CO)C[C@@H]2C)cc1 | -0.1
63 | COc1ccc(NC(=O)Nc2cccc3c2O[C@@H](CN(C)S(=O)(=O)c2ccc(Cl)cc2)[C@H](C)CN([C@@H](C)CO)C3=O)cc1 | 0.1
64 | C[C@@H]1CN([C@H](C)CO)C(=O)c2cc(NC(=O)Nc3ccccc3)ccc2O[C@@H](C)CCCCO[C@H]1CN(C)C(=O)C1CCCCC1 | 0.6
65 | C[C@@H]1CCCCO[C@H](CN(C)CC2CCCCC2)[C@H](C)CN([C@@H](C)CO)C(=O)c2cc(NC(=O)CCC(F)(F)F)ccc2O1 | -1.0
66 | C[C@H](CO)N1C[C@H](C)[C@@H](CN(C)C(=O)Nc2cccc3ccccc23)OCCCC[C@H](C)Oc2ccc(NC(=O)Cc3ccccc3)cc2C1=O | 0.0
67 | C[C@@H]1CCCCO[C@@H](CN(C)C)[C@@H](C)CN([C@H](C)CO)C(=O)c2cc(NC(=O)NC3CCCCC3)ccc2O1 | -0.8
68 | COc1ccc(CN(C)C[C@H]2Oc3c(NC(=O)CCCCCC(=O)Nc4ccccc4N)cccc3C(=O)N([C@@H](C)CO)C[C@@H]2C)cc1 | 0.2
69 | C[C@@H]1CCCCO[C@@H](CN(C)C(=O)c2ccccc2)[C@H](C)CN([C@H](C)CO)C(=O)c2cc(NC(=O)CCCN(C)C)ccc2O1 | 0.8
70 | C[C@@H]1CN([C@@H](C)CO)C(=O)c2cc(NC(=O)CCCN(C)C)ccc2O[C@@H]1CN(C)Cc1ccncc1 | -0.4
71 | C[C@@H]1CN([C@H](C)CO)C(=O)c2cccc(NC(=O)c3cnccn3)c2O[C@H]1CN(C)C(=O)Nc1cccc2ccccc12 | 1.6

As entered above:
compound 54 in A1 apoptosis 2 has -0.2
compound 26 in A1 apoptosis 2 has 1.3
compound 1 in A1 apoptosis 2 has -0.6
compound 15 in A1 apoptosis 2 has -0.1

Screens as filed in PubChem BioAssay.
